Beta2AR agonist: activates human beta-2 adrenergic receptor causing internalization | P07550 | Am2.2-beta2AR cells, FAP receptor internalization, flow cytometry; reference of the scale not given here | AID 504454 | response, % (no concentration beside the values) | 340,000 tested, 0.43% active;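 active = response above a set limit, near 3 SD of response in nonfluorescent compounds, cut at about 42% in these data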;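 note: stock transfer was 100 nL into about 11 µL; a reference agonist was the positive control; negative values mostly stem from fluorescent compounds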
Vif A3G: inhibitors of Vif binding to APOBEC3G peptide, primary screen, biochemical, TR-FRET, GST-Vif 1-94, biotin-A3G peptide, dose response retest (AID 1117319); TR-FRET GST-Vif / biotin-A3G peptide binding; higher % means a stronger effect; test concentration not given here; strong numbers were not always called active; inhibition, %; hits with a dose series show IC50 in µM; 260,000 tested, 0.57% active;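 active = above the screen mean plus three standard deviations and confirmed in dose response; inconclusive = results disagree or hit not tested in dose response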;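 note: Vif residues 1-94 fused to GST binding biotinylated APOBEC3G peptide 110-148; 0% = full assay without inhibitor and 100% = GST in place of GST-Vif; retest series ran down from 100 µM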
UCH37 inh: human UCH37 deubiquitinating enzyme inhibition. purified proteasome/UCH37, Ub-AMC cleavage fluorescence. AID 588478. 330,000 tested, 0.33% active. Q9Y5K5. inhibition, % (no concentration beside the values);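 active = mean of two replicates above 20%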;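 note: 0% = compound-free wells with enzyme and 100% = wells lacking proteasome; stock transfer was 100 nL into about 20 µL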
Target sequence (Q9Y5K5 whole entry, looked up): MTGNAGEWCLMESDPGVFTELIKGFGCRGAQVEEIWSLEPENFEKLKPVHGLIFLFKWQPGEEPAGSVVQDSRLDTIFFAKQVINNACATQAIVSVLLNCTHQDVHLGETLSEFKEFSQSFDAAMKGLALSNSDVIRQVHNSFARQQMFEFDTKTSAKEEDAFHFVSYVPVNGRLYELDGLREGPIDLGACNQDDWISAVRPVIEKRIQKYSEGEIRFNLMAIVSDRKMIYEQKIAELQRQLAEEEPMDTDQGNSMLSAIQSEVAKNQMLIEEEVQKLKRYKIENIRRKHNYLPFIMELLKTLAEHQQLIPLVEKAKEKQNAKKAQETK
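Test system – human UCH37 enzyme supplied as purified proteasome complex · Incubation – 30 min preincubation with enzyme, 25 min cleavage at room temperature · Detection – AMC fluorescence from Ub-AMC cleavage, excitation 355 nm, emission 460 nm · Benchmarks – no-proteasome wells (full inhibition) and compound-free wells (no inhibition)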
Ecoli growth: blocks Escherichia coli growth; OD600, 23 h; active compounds read low; OD600 absorbance (test concentration not listed); 330,000 tested, 0.21% active; AID 1053175;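 active = OD600 absorbance below the run mean of sample wells minus 3.6 SD, in any replicate, cut at about 0.56 in these data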;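 note: stock transfer was 300 nL into about 60 µL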
HNF4A DNA FP: change in binding of human HNF4 alpha to DNA. HNF4a-FITC DNA binding, fluorescence polarization, 1 h. activity change, % at 10 µM. 360,000 tested, 0.3% active; in the data active = activity change above about 30%, passing the limit was not always enough;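 note: controls were the assay level and a saturating level of protein; the project sought stronger binding though the title names inhibitors; some compounds called inactive have numbers as strong as hits; positive values seem to mean higher polarization but the record does not say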
Target sequence (P41235 whole entry, looked up): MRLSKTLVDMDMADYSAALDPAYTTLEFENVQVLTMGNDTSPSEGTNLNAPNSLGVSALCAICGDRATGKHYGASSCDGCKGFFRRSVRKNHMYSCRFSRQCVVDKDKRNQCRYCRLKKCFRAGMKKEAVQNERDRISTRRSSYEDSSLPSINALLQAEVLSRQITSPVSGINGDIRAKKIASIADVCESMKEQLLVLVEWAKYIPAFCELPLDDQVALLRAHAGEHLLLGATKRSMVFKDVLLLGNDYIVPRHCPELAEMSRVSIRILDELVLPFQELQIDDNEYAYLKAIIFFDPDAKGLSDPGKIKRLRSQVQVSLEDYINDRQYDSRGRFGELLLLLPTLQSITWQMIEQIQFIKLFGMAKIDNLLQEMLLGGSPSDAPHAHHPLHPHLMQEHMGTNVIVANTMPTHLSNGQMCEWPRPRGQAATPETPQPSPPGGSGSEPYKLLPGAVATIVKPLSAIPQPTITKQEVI
Bfl-1 A1 inh: inhibitors of the anti-apoptotic protein A1, read as caspase activation. MEF A1-2A-BIM cells, Caspase-Glo 3/7 luminescence, 3 h; percent of clofoctol response, vehicle zero. caspase activation, % (concentration not given with the values). 330,000 tested, 0.066% active;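 active = over half of replicate activation scores above 10%, or exactly half above 10 with the replicate mean above 10; inconclusive = replicate mean below 10 yet half the replicates above 10; inactive = over half of replicates below 10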;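 note: wells of about 30 µL received 50 nL stock; many hits fall short of the cut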
LANA-H2B inh: blocks KSHV LANA binding to histone H2A/H2B; Q9QR71; cell-free LANA-H2A/H2B peptide, fluorescence polarization; inhibition, % (test concentration not listed); 320,000 tested, 0.6% active; AID 2629; in the data active = inhibition mostly above about 10%, no sharp cut-off; inactive = mostly below about 6.7%;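 note: stock transfer was 7.5 nL into about 10 µL; 0% = median of vehicle wells and 100% = median of positive control wells; one replicate is shown; the record names a cut of 25% in any replicate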
Starred values were filed as active, the others as inactive; ? = inconclusive; . = not tested or not shown.

SMILES | Beta2AR agonist | Vif A3G | UCH37 inh | Ecoli growth | HNF4A DNA FP | Bfl-1 A1 inh | LANA-H2B inh
CC1(C)CC(=O)C2=C(C1)NC1=C(C(=O)c3ccccc31)C2c1cccnc1 (stereo not drawn) | -5.2 | . | 0.8 | 0.709 | 0.6 | 0.1 | 1.6
CC(=O)NCc1ccc(-c2csc(NC(=O)CCCc3nc4ccccc4c(=O)[nH]3)n2)cc1 | -6.5 | 6.6% | -0.4 | 0.701 | 1.8 | 0.5 | 2.4
CCOC(=O)c1[nH]c(C)c(C(=O)OCC)c1C | -3.5 | 3.8% | 5.6 | 0.721 | 1.4 | -0.9 | -4.7
CNC(=O)c1ccccc1NC(=O)c1cccc(S(=O)(=O)N2CCC(C)CC2)c1 | -5.8 | ? | 4.1 | 0.683 | -2.7 | -0.6 | 0.2
CC(C)c1ccc(NC2CCCN(C(=O)c3cc(C(C)C)nc(N)n3)C2)cc1 (stereo not drawn) | 1.5 | . | 3.6 | 0.689 | -2.7 | -0.7 | -4.8
O=C(CCc1nc2ccccc2s1)Nc1ccccc1 | -1.8 | . | 1.9 | 0.625 | -2.9 | 0.3 | 1.7
O=C(CSc1nc2ccccc2c(=O)n1Cc1ccco1)N1CCCC1 | -8.8 | -8.1% | 0.1 | 0.662 | 1.2 | 0.1 | -15.7
CCC(C)[C@H](NS(=O)(=O)c1ccc(C)cc1)C(=O)N1CCC(C(=O)N2CCC(C(N)=O)CC2)CC1 (stereo partly drawn) | -1.6 | . | 0.7 | 0.795 | -2.4 | -0.1 | -3.3
O=C(Nc1ccccc1NC(=O)C1CCCO1)c1ccco1 (stereo not drawn) | 2.6 | 17.5% | -3.9 | 0.641 | -1.4 | -0.8 | -3.9
CC(=O)c1c(C)[nH]c(C(=O)NC2=NCCS2)c1C | -0.9 | -6.0% | 5.6 | 0.676 | 0.2 | 0.5 | 1.0
CCOC(=O)C1CCN(C(=O)C2CCC(=O)N(CC3CCCCC3)C2)CC1 (stereo not drawn) | 11.5 | -7.3% | 5.5 | 0.695 | 2.3 | -1.5 | -0.4
CCOc1ccc(OCc2ccc(C(=O)NC(C)C)o2)cc1 | -16.3 | 3.0% | 1.3 | 0.647 | -1.9 | -0.3 | 1.5
CCOC(=O)C(C)(C)N(Cc1ccc(C)cc1)S(=O)(=O)c1ccc(Cl)c([N+](=O)[O-])c1 | 15.2 | . | 4.8 | 0.679 | 4.7 | -0.1 | 0.5
O=C(Cn1nnc2ccccc21)c1ccc(Br)cc1 | -2.6 | . | 5.9 | 0.636 | 1.0 | -1.7 | -0.7
Cc1cc(NC(=O)COc2ccc3ccccc3c2Br)no1 | 1.2 | . | -0.6 | 0.709 | 4.1 | -1.4 | 0.6
Oc1sc(C=Nc2ccc(F)cc2)c2ccccc12 | -0.4 | 5.4% | 0.2 | 0.667 | 35.8* | -3.0 | -12.2
Cc1onc(-c2ccccc2)c1-c1csc(N/N=C/c2ccccc2)n1 | 11.6 | -2.0% | . | . | 3.3 | -0.6 | 3.5
COc1cccc(OC)c1C(=O)NC(=S)Nc1ccc(S(=O)(=O)Nc2nccs2)cc1 | 4.5 | . | 3.2 | 0.655 | 3.5 | 0.6 | -5.5
CC(C)C[C@@]12C(=O)N(c3cccc(Br)c3)C(=O)N1[C@H](c1ccc(Cl)cc1)[C@@H]1C(=O)N(C3CCCCC3)C(=O)[C@@H]12 | -4.9 | . | -1.4 | . | -0.6 | -0.5 | -0.5
COCCn1c(SCC(=O)Nc2nnc(C)s2)nnc1-c1c[nH]c2ccccc12 | 1.8 | 4.4% | 2.9 | 0.705 | 2.8 | -0.2 | -2.8
CSc1ncc(Cl)c(C(=O)Nc2cccc(Cl)c2)n1 | -8.3 | 0.3% | 5.7 | 0.649 | 0.7 | 0.2 | 7.3
O=C(COc1ccccc1)N1CCN(S(=O)(=O)c2cccs2)CC1 | -0.2 | 24.6% | -0.2 | 0.698 | 0.2 | 0.2 | 0.2
O=C(Nc1cccnc1)c1cccc([N+](=O)[O-])c1 | 2.6 | 1.0% | 0.6 | 0.69 | 0.7 | 0.1 | -2.4
O=C(O)c1cc(NC(=O)C2CCCO2)cc(C(=O)O)c1 (stereo not drawn) | 1.7 | . | 2.8 | 0.675 | -1.1 | 2.2 | -0.1
Cn1nnc(NC(=O)CSc2nnnn2-c2ccc(F)cc2)n1 | -1.1 | 9.2% | -2.7 | 0.664 | -3.7 | 0.5 | -0.2
COc1ccc(NC(=O)C2CCN(c3cc(C)nc(-c4ccccc4)n3)CC2)cc1 | 3.0 | -2.0% | 4.3 | 0.713 | 2.6 | 0.4 | 1.7
Cc1cc(NC(=O)c2ccccc2-c2ccccc2C(=O)O)no1 | 7.8 | 0.6% | . | . | 1.9 | -0.8 | -0.3
COCc1ccc(C(=O)N2CCCC(C(=O)c3ccc(Cl)cc3C)C2)o1 (stereo not drawn) | -0.9 | . | 3.0 | 0.629 | -1.1 | 0.3 | -4.3
COC(=O)CN1C(=O)[C@H]2[C@@H](c3ccc(C)o3)N3C(=O)CN(Cc4ccc(-c5ccccc5)cc4)C(=O)[C@@]3(C)[C@H]2C1=O | -1.8 | . | -2.1 | . | -0.2 | 1.1 | 1.4
C/C(=C\C(=O)c1ccc(C)o1)Nc1ccc(C(=O)O)cc1C | -3.8 | 2.7% | 9.9 | 0.76 | 0.9 | -0.9 | -5.2
CCCOc1ccc(N2C(=O)CC(N3CCN(CCN=CC4C(=O)CC(C)(C)CC4=O)CC3)C2=O)cc1 (stereo not drawn) | -17.8 | -2.4% | 1.3 | 0.705 | -0.7 | 0.6 | -4.0
CC(C)c1ccc(S(=O)(=O)N2CCN(C(=O)CCNS(=O)(=O)c3ccccc3F)CC2)cc1 | 1.9 | 5.4% | 3.2 | 0.7 | 0.6 | 1.3 | 4.0
CCOC(=O)C1=C(C)N=c2sc(=C(C)C)c(=O)n2C1c1ccc(N(C)C)cc1 (stereo not drawn) | 19.8 | . | -0.4 | 0.671 | 5.0 | 1.6 | 2.4
Oc1ccc(Br)cc1/C=N/Nc1ncc(-c2ccccc2)cn1 | 2.1 | -2.4% | . | . | -1.3 | -0.2 | 0.5
O=C(CSc1nc2ccccc2o1)NC1CCCC1 | -1.5 | 16.9% | 2.5 | 0.664 | -0.8 | -0.2 | -3.8
CC1CC(C)CN(C(=O)Cn2cc(C=O)c3ccccc32)C1 (stereo not drawn) | -1.1 | 4.7% | 1.5 | 0.688 | 1.3 | 0.0 | 0.2
COc1ccc2ccccc2c1/C=N/NC(=O)c1ccc([N+](=O)[O-])cc1 | 5.5 | 1.2% | . | . | -1.0 | 0.2 | -0.6
O=C(NCc1ccccc1)C1C(=O)N(Cc2ccccc2)C(=O)C1C1(O)CCCC1 (stereo not drawn) | 0.5 | -1.0% | 3.1 | 0.699 | 2.4 | 0.3 | 0.1
Cc1nc2cc(C(F)(F)F)ccc2n1C1CCN(CC(=O)N2CCOCC2)CC1 | -2.4 | -2.0% | 0.6 | 0.7 | 1.3 | 0.9 | -4.7
O=C(CSc1nc2nc[nH]c2c(=O)[nH]1)NC1CCCCC1 | -1.3 | 4.0% | 3.3 | 0.763 | 2.7 | 0.3 | -0.6
Cc1ccc(NC(=O)COc2coc(CN3c4ccccc4CC3C)cc2=O)c(C)c1 (stereo not drawn) | 2.5 | . | 3.4 | 0.689 | -1.9 | 1.1 | -0.5
O=C(CN1CCN(c2ccccc2F)CC1)Nc1ccc2c(c1)CCC2 | -2.9 | . | 2.8 | 0.726 | 3.1 | -0.6 | 0.2
CCOC(=O)C(Cc1cc(C(C)=O)ccc1OCC)C(=O)OCC | -0.5 | 4.4% | 1.1 | 0.766 | 0.0 | -0.9 | 0.0
c1coc(-c2nnc(-c3ccc4c(c3)OCO4)o2)c1 | . | 9.8% | -180.7 | 0.608 | . | . | .
COc1cc(NC(=S)NC(=O)c2ccc(F)cc2)ccc1NC(=O)c1ccco1 | -8.9 | 4.5% | 6.2 | 0.757 | 3.0 | -1.3 | 2.4
CCOC(=O)c1c(NC(=O)COC(=O)CCNS(=O)(=O)c2ccccc2)sc(C(=O)NC)c1C | 3.2 | . | 4.4 | 0.652 | -0.4 | . | .
O/N=C/c1ccc2ccccc2n1 | 5.4 | -8.7% | . | . | -0.8 | -3.0 | 8.9
NC(=O)CN(c1ccc(Cl)cc1)S(=O)(=O)c1ccccc1 | 10.3 | 15.5% | 3.2 | 0.696 | 0.2 | 0.7 | 1.6
O=C(N/N=C/c1ccsc1)c1cc(-c2cccs2)nc2ccccc12 | -16.9 | 0.4% | . | . | -1.2 | ? | -0.3
CSc1nc(Cl)cc(=O)[nH]1 | -17.9 | -2.0% | 3.5 | 0.688 | -1.2 | 0.6 | -9.1
Cc1cc(C(=O)CSc2nnc(-c3ccco3)o2)c(C)n1CC1COc2ccccc2O1 (stereo not drawn) | -14.2 | 15.4% | -1.6 | 0.79 | 4.3 | . | .
CC1CCCCC1N1CN=C(Nc2nc3ccccc3s2)NC1 (stereo not drawn) | -4.4 | 2.5% | 3.5 | 0.754 | 5.2 | -0.5 | -0.5
COc1ccc2oc(C(=O)NC(C)c3ccccn3)c(C)c2c1 (stereo not drawn) | -8.0 | 1.9% | -27.0 | 0.699 | 2.8 | 1.2 | 2.1
O=C(Cc1ccccc1)N/N=C/c1ccc([N+](=O)[O-])s1 | -1.4 | 20.6% | . | . | -1.1 | -0.7 | -0.5
CCc1cc(=O)oc2cc(C)cc(OC(C)C(=O)NCc3ccncc3)c12 (stereo not drawn) | 3.4 | . | -94.4 | 0.696 | -0.6 | 0.6 | 3.6
Cc1ccc(S(=O)(=O)N2CCOCC2)cc1NC(=O)COC(=O)CNC(=O)c1ccc(Oc2ccccc2)cc1 | -2.0 | -11.6% | -0.1 | 0.696 | -2.1 | -0.4 | -4.6
C[C@]12c3[nH]c4cc(-c5ccco5)ccc4c3CCN1C(=O)[C@@H](CC(=O)NCc1cccc(C(F)(F)F)c1)C[C@@H]2C(=O)N1CCOCC1 | 16.2 | . | -15.3 | 0.71 | 5.7 | . | .
O=C(COC(=O)/C=C/c1ccccc1[N+](=O)[O-])NC(=O)NC1CCCC1 | 4.8 | 6.6% | 3.4 | 0.651 | 1.3 | . | .
CC(O)CN1CCN(C(=O)CN2C(=O)NC(c3ccccc3)(c3ccccc3)C2=O)CC1 (stereo not drawn) | 0.7 | . | 2.0 | 0.617 | -3.4 | 0.5 | -0.5
CCCN(CC(=O)Nc1cc(C)on1)CC(=O)Nc1ccc(F)c(F)c1F | -1.0 | . | 4.1 | 0.715 | 1.2 | 0.7 | -0.8
Remaining list, next part
SMILES | Beta2AR agonist | Vif A3G | UCH37 inh | Ecoli growth | HNF4A DNA FP | Bfl-1 A1 inh | LANA-H2B inh
C=CCn1c(SCC(=O)NCC2CCCO2)nc2scc(-c3ccc(OC)cc3)c2c1=O (stereo not drawn) | -12.0 | . | 1.8 | 0.696 | 3.3 | 2.1 | 5.6
CC(C)(O)[C@@H]1Cc2c(ccc3ccc(=O)oc23)O1 | -1.4 | -11.9% | -170.8 | . | 1.7 | -0.7 | -0.7
O=C(/C=C/c1ccco1)N(Cc1cccc(Cl)c1)C1CCS(=O)(=O)C1 (stereo not drawn) | -6.4 | 32.0% | 5.9 | 0.633 | 1.8 | 0.6 | 4.1
Oc1ccc(Br)cc1/C=N/N1CCCCC1 | 7.4 | . | . | . | -1.0 | -13.0 | -1.9

Assay outcomes (PubChem BioAssay)
